FGF22 binding: binders of recombinant human FGF22 by thermal shift | Q9HCT0 | SYPRO orange fluorescence; percent of sucrose octasulfate shift, DMSO zero | calls only at 9.99 µM | 340,000 tested, 1.5% active | AID 651658;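 active = melting point raised past a set limit in the mean and every replicate; inconclusive = no clear call; three in four hits are not shown here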
Ecoli growth: E. coli growth inhibition; 330,000 tested, 0.21% active; OD600 absorbance (test concentration not listed); Escherichia coli growth, OD600, 23 h; hits give low values; AID 1053175;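 active = OD600 absorbance below the run mean of sample wells minus 3.6 SD, in any replicate, cut at about 0.56 in these data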;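 note: stock transfer was 300 nL into about 60 µL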
rRNA inh HTS: selective bacterial rRNA inhibition in E. coli; E. coli WT GFP vs humanized-ribosome RFP mutants, fluorescence, 24 h; hits give low values; DMSO median 0, no signal -100; GFP signal change (wild-type ribosome), % (no concentration beside the values); 350,000 tested, 1.6% active; AID 720706;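 active = significant combined selectivity score with lowered wild-type GFP, culture density cut under 30%, mutant RFP and density less affected; inactive = any of these conditions unmet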; note: one replicate is shown; some compounds called inactive have numbers as strong as hits
ALR H2O2 inh: human ALR oxidase inhibition via reduced H2O2 | P55789 | purified ALR, DTT oxidation, H2O2 HRP-luminol luminescence | inhibition, % (test concentration not listed) | 290,000 tested, 3.8% active | AID 485317;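 active = mean and each replicate at 75% or more; inconclusive = only one of the two met; inactive = neither met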;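 note: stock transfer was 7.5 nL into about 7.5 µL; 0% = neutral wells and 100% = wells with inactivated enzyme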
Target sequence (P55789 whole entry, looked up): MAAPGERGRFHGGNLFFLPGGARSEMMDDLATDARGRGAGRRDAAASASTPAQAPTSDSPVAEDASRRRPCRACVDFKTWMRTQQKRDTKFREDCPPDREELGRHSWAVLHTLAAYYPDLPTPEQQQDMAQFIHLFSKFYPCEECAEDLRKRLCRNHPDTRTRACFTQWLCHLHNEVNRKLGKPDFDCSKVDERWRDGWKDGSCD
HNF4A DNA FP: change in binding of human HNF4 alpha to DNA; P41235; HNF4a-FITC DNA binding, fluorescence polarization, 1 h; activity change, % at 10 µM; 360,000 tested, 0.3% active; AID 1224865; in the data active = activity change above about 30%, passing the limit was not always enough;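 note: controls were the assay level and a saturating level of protein; the project sought stronger binding though the title names inhibitors; some compounds called inactive have numbers as strong as hits; positive values seem to mean higher polarization but the record does not say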
UCH37 DUB inh: blocks the human deubiquitinase UCH37. Q9Y5K5. inhibition, % (no concentration beside the values). purified proteasome/UCH37, Ub-AMC cleavage fluorescence. 330,000 tested, 0.33% active;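 active = mean of two replicates above 20%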;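 note: 0% = compound-free wells with enzyme and 100% = wells lacking proteasome; stock transfer was 100 nL into about 20 µL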
Target sequence (Q9Y5K5 whole entry, looked up): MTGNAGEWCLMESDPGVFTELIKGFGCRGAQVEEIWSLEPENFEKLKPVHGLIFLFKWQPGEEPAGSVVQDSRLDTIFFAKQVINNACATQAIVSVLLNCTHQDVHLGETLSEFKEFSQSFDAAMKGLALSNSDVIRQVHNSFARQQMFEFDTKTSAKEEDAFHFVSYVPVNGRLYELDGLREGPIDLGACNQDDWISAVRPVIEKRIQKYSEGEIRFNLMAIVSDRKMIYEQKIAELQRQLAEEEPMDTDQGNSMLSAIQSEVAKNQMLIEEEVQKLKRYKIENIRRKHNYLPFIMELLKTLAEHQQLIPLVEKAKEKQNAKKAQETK
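Reagent: Ub-AMC substrate; assay system: Proteasome-associated human UCH37 deubiquitinase; controls: no-proteasome and no-compound wells; read-out: % inhibition of Ub-AMC cleavage fluorescence; timing: 30 min preincubation with enzyme, 25 min cleavage at room temperature; signal: AMC fluorescence from Ub-AMC cleavage, excitation 355 nm, emission 460 nm; buffer or medium: Tris-HCl pH 7.4 plus ovalbumin, ATP-MgCl2, DTT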
Beta2AR agonist: activates human beta-2 adrenergic receptor causing internalization; Am2.2-beta2AR cells, FAP receptor internalization, flow cytometry; reference of the scale not given here; response, % (concentration not given with the values); 340,000 tested, 0.43% active; AID 504454;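 active = response above a set limit, near 3 SD of response in nonfluorescent compounds, cut at about 42% in these data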;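 note: stock transfer was 100 nL into about 11 µL; a reference agonist was the positive control; negative values mostly stem from fluorescent compounds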
Target sequence (P07550 whole entry, looked up): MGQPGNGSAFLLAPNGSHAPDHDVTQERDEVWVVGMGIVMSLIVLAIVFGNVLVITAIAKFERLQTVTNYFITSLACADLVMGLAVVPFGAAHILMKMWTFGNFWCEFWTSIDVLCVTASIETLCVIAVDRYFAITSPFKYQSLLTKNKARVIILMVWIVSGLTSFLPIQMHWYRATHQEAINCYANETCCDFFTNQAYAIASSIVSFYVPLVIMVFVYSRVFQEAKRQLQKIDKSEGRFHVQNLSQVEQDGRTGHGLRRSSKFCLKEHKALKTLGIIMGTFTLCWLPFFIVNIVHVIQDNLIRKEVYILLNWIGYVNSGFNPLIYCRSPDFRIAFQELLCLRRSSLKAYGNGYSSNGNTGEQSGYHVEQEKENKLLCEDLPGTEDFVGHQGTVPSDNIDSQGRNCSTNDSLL
rRNA inh HTS OD600: also measured in rRNA inh HTS; calls as there; OD600 change, %; measured here: OD600 growth;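 optical density of the mix in the first replicate; 0 = DMSO median and -100 = no signal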
rRNA inh HTS RFP: second read-out of rRNA inh HTS, no call of its own (marks repeat the call); RFP signal change, %; measured here: RFP humanized mutant strains;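 first replicate; 0 = DMSO median and -100 = no signal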
An asterisk follows results filed as active; i = inactive; ? = inconclusive; · = not tested or not shown.

SMILES	FGF22 binding	Ecoli growth	rRNA inh HTS	rRNA inh HTS OD600	rRNA inh HTS RFP	ALR H2O2 inh	HNF4A DNA FP	UCH37 DUB inh	Beta2AR agonist
NS(=O)(=O)c1ccc(NC(=O)CSC2CCCCC2)cc1	·	0.686	·	·	·	-10.4	-1.3	3.7	-3.4
COC(=O)[C@@]1(Cc2ccccc2)[C@H]2C(=O)N(Cc3ccccc3)C(=O)[C@H]2[C@H]2CN=C(SCc3ccc(Cl)cc3)N21	·	0.745	-3.3	-3.4	-5.8	·	-0.8	-0.7	3.3
O=C(COc1ncnc2ccccc12)N1CCN(c2ccccc2)CC1	i	0.639	5.1	10.5	0.7	13.2	3.5	5.7	2.6
O=C(CCN1C(=O)C2C3C=CC(C3)C2C1=O)Nc1nccs1 (configuration not stated)	·	0.73	·	·	·	·	5.1	2.5	-11.0
O=C1c2ccccc2C(=O)N1CCCCCCN1C(=O)c2ccccc2C1=O	i	0.717	·	·	·	·	-3.5	3.6	2.6
O=C(CSc1nnc(C2COc3ccccc3O2)o1)N1CCCCC1 (configuration not stated)	i	0.735	3.6	1.8	2.6	·	3.2	6.6	-13.6
CCCCc1nc2cc(Cl)ccc2o1	·	0.685	-2.4	3.3	-1.2	-0.3	5.5	1.7	-0.1
Nc1ccc(S(=O)(=O)Nc2nccs2)cc1N=Nc1ccccc1[N+](=O)[O-]	i	0.7	-20.4*	4.3*	1.3*	·	-5.8	8.1	5.7
Cc1cccc(-n2c(SCC(=O)NCC3CCCO3)nc3ccccc3c2=O)c1C (configuration not stated)	i	0.707	2.4	3.9	-0.6	·	3.9	0.1	-6.1
O=C(O)C1C2CCCCC2=C2CCCCC2C1C(=O)Nc1nccs1 (configuration not stated)	i	·	-12.4	-8.5	5.0	·	1.9	·	-1.6
COc1ccc(CCNC(=O)CSc2nc3[nH]ncc3c(=O)[nH]2)cc1OC	i	0.693	-0.4	1.5	-1.8	-8.7	-2.6	-0.2	3.3
O=C(NNC(=O)c1ccccc1[N+](=O)[O-])c1ccccc1[N+](=O)[O-]	i	0.643	3.3	14.2	1.9	·	-1.7	2.8	-0.3
COc1ccccc1NC(=O)C(=O)N(c1cccnc1)C(C(=O)NC(C)(C)C)c1ccccc1F (configuration not stated)	i	0.683	9.6	7.6	5.2	-16.5	-2.4	6.3	-0.7
N#C/C(=C\c1ccccc1)C(=O)N1CCC(C(N)=O)CC1	i	0.625	13.5	15.6	1.5	·	-1.7	5.7	-4.3
Cc1sc2nc(SC(C)C)nc(N)c2c1C	·	0.716	·	·	·	-0.3	-0.1	1.0	4.4

Full records, looked up by structure. Screens in order: FGF22 binding | Ecoli growth | rRNA inh HTS | rRNA inh HTS OD600 | rRNA inh HTS RFP | ALR H2O2 inh | HNF4A DNA FP | UCH37 DUB inh | Beta2AR agonist
`O=C1c2ccccc2C(=O)N1CCCCCCN1C(=O)c2ccccc2C1=O` is listed with i | 0.717 | · | · | · | · | -3.5 | 3.6 | 2.6
`CCCCc1nc2cc(Cl)ccc2o1` is listed with · | 0.685 | -2.4 | 3.3 | -1.2 | -0.3 | 5.5 | 1.7 | -0.1
`O=C(COc1ncnc2ccccc12)N1CCN(c2ccccc2)CC1` is listed with i | 0.639 | 5.1 | 10.5 | 0.7 | 13.2 | 3.5 | 5.7 | 2.6
`O=C(NNC(=O)c1ccccc1[N+](=O)[O-])c1ccccc1[N+](=O)[O-]` is listed with i | 0.643 | 3.3 | 14.2 | 1.9 | · | -1.7 | 2.8 | -0.3

Remaining list, next part
SMILES	FGF22 binding	Ecoli growth	rRNA inh HTS	rRNA inh HTS OD600	rRNA inh HTS RFP	ALR H2O2 inh	HNF4A DNA FP	UCH37 DUB inh	Beta2AR agonist
O=c1oc2ccccc2c(Nc2ccccc2)c1CN1CCCCC1	i	0.62	4.9	-4.0	-6.3	10.8	0.1	7.9	7.7
COc1ccc(NC(=O)Nc2nc3c(s2)CCCC3)cc1	i	0.64	-31.3	-31.0	-2.6	10.4	-0.5	-0.2	1.9
CCN(CCO)c1nc(NCc2ccccc2)c2cnn(C)c2n1	i	0.678	-14.7	-22.4	-4.5	-2.7	-2.9	0.3	-0.6
CC(=O)NC1=NN(C(C)=O)C(C)(CCS(=O)(=O)c2ccc(Cl)c(Cl)c2)S1 (configuration not stated)	·	0.686	·	·	·	-20.4	1.4	0.5	-1.6
CC(C)c1ccc(C2NC(=O)NC3=C2CCc2ccccc23)cc1 (configuration not stated)	·	0.688	·	·	·	·	28.1	-51.6	-3.9
Cc1ccc(-n2nnc3c(=O)n(CC(=O)NCc4ccco4)cnc32)cc1	i	0.718	-0.9	3.6	-2.8	-3.1	0.8	5.3	-2.3
CCOC(=O)c1c(-c2cccs2)csc1NC(=O)CSc1ncn[nH]1	i	0.696	-57.5	-80.2	-27.3	3.5	1.2	1.6	6.9
O=C(NCCc1ccco1)c1cc(COc2cccc(C(F)(F)F)c2)on1	i	0.699	-37.9	-39.6	-1.0	0.9	2.9	3.4	-7.8
COc1ccc(C(C)=O)cc1CSCC(=O)O	i	0.705	-10.2	-5.5	-1.6	-2.0	3.2	0.7	1.6
O=C1CSC(c2cn(-c3ccccc3)nc2-c2ccccc2)N1Cc1ccco1 (configuration not stated)	·	0.729	·	·	·	0.7	1.3	-0.2	-0.3
COc1cc(NC(=O)CCCNC(=O)Cn2cnc3sc(C)c(C)c3c2=O)cc(OC)c1OC	i	0.62	1.8	1.1	-4.1	-2.9	-2.7	1.8	-2.8
COc1ccc(NC(=O)COC(=O)C2CC(=O)N(Cc3ccc(C)cc3)C2)cc1 (configuration not stated)	i	0.682	-2.1	4.6	-0.2	-8.2	-2.4	1.8	0.8
O=C/C(=C\Nc1ccc(S(=O)(=O)CCO)cc1)c1nc2cc(Cl)ccc2o1	i	0.721	-18.6	-26.6	-6.7	33.9	2.8	7.5	4.7
CC(C)c1nc2sc(C(=O)O)c(N)c2c2c1CCCC2	i	0.724	-4.0	0.8	9.0	-6.4	-0.5	3.3	i
c1ccc(-c2nc3ccccc3nc2-c2ccccn2)nc1	·	0.612	·	·	·	-18.9	0.1	7.0	-4.5
Cc1cc(C)c(S(=O)(=O)N(C2=NCCS2)S(=O)(=O)c2c(C)cc(C)cc2C)c(C)c1	·	0.762	·	·	·	-10.4	-0.1	5.8	0.8
COc1ccc(CC(=O)N/N=C/C=C/c2cccc([N+](=O)[O-])c2)cc1OC	i	·	-1.9	5.8	2.9	-8.2	3.8	·	-0.4
Cc1cc(=O)oc2cc(OCC(=O)N/N=C/c3ccccc3[N+](=O)[O-])ccc12	·	·	·	·	·	-4.6	0.9	·	-18.2
CCOCCCNC(=O)C1CCN(S(=O)(=O)c2c(C)noc2/C=C\c2ccc(OC)cc2)CC1	·	0.686	·	·	·	-19.6	4.4	-73.8	1.6
CC1(C(=O)NCCC#N)CCN1C(=O)C1(c2ccccc2)CC1 (configuration not stated)	i	·	13.8	27.2	1.6	·	2.3	·	·
Cc1cccc(C)c1NC(=O)CN(Cc1ccccc1)Cc1ccccc1	i	·	8.5	1.9	-2.5	·	-1.5	·	·
O=C(c1cc(C2CC2)nn1-c1ccccc1)N1CCN(S(=O)(=O)c2ccccc2F)CC1	i	·	-5.0	-18.4	-1.8	·	0.0	·	·
CCn1c(=O)c2c(nc3n2CCCN3c2cccc(C)c2)n(C)c1=O	i	0.628	-16.5	-10.1	3.5	·	0.7	2.9	-1.6
Cc1nc2ccccc2nc1N/N=C/c1ccc(O)cc1	i	·	4.3	11.9	5.1	84.7*	1.2	·	8.6
CCOC(=O)c1c(NC(=S)NC(=O)/C=C/c2cccs2)sc(C)c1C	i	0.719	0.8	1.9	-0.3	-0.4	-0.6	4.8	-3.0
N/C(=N\OC(=O)c1ccccc1)c1ccccn1	i	0.648	16.1	16.5	0.2	47.0	-4.0	-0.7	-5.0
CCOc1ccccc1NC(=O)c1ccc2c(=O)n3c(nc2c1)CCCCC3	i	0.667	-24.8	-25.2	-1.7	-3.0	-1.5	-1.1	-3.4
COc1ccc(NC(=O)CCC2CCCC2)cc1OC	·	0.689	·	·	·	1.6	-11.2	3.3	-10.4
Cc1nn(-c2ccccc2)c(/N=C/c2ccc(O)cc2)c1-c1ccccc1	i	·	5.8	5.9	-0.9	-4.9	-1.2	·	9.6
COc1cc2cc(C(=O)N/N=C/c3cccc(OC)c3OC)[nH]c2cc1OC	i	·	-31.4	-68.1	9.1	15.9	3.7	·	18.2
CN(C)c1c([N+](=O)[O-])cc2[nH]c(=O)[nH]c2c1[N+](=O)[O-]	·	0.651	·	·	·	-8.8	1.0	8.4	-9.5
Cc1oc(-c2ccc(Cl)cc2)nc1CS(=O)CC(=O)NC1CCCCC1 (configuration not stated)	i	0.703	0.6	-0.1	-1.0	97.0*	3.7	3.1	-2.2
O=c1nc2ccccc2c2n1CC(CN1CCN(c3cccc(Cl)c3)CC1)N2 (configuration not stated)	·	0.693	·	·	·	?	3.7	5.3	-3.4
O=C(c1ccco1)N1CCN(Cc2cccnc2)CC1	·	0.685	·	·	·	-4.9	-3.6	-1.9	1.5
COc1ccc2c(CC(=O)N[C@@H](Cc3ccccc3)C(=O)O)cc(=O)oc2c1	i	0.682	0.6	3.8	-3.4	-6.1	-2.2	-240.8	-6.6
Cn1c(NCc2ccncc2)nc2cc(-c3ccsc3)sc2c1=O	i	·	-4.8	-11.2	-3.0	·	1.7	·	·
COc1ccc(/C=N/n2c(SC)nnc2-c2ccccc2)cc1C	·	·	-9.3	-30.8	6.6	-9.2	1.4	·	7.0
COc1cc(Cl)c(C)cc1NC(=O)CSC	·	0.71	·	·	·	·	-2.8	3.4	4.0
COc1ccc(S(=O)(=O)N2CCC(C(=O)N(CC(C)C)C3CCS(=O)(=O)C3)CC2)cc1OC (configuration not stated)	i	0.652	-0.3	-2.5	0.3	-12.1	1.4	1.2	-7.0
Cc1ccc(S(=O)(=O)N2CCCC(C(=O)NCc3ccc4c(c3)OCO4)C2)cc1 (configuration not stated)	i	0.661	2.0	6.1	5.6	-10.6	0.2	-1.1	-5.5

Three entries from above in another layout:
> CN(C)c1c([N+](=O)[O-])cc2[nH]c(=O)[nH]c2c1[N+](=O)[O-]
- FGF22 binding: ·
- Ecoli growth: 0.651
- rRNA inh HTS: ·
- rRNA inh HTS OD600: ·
- rRNA inh HTS RFP: ·
- ALR H2O2 inh: -8.8
- HNF4A DNA FP: 1.0
- UCH37 DUB inh: 8.4
- Beta2AR agonist: -9.5
> Cc1oc(-c2ccc(Cl)cc2)nc1CS(=O)CC(=O)NC1CCCCC1 (configuration not stated)
- FGF22 binding: i
- Ecoli growth: 0.703
- rRNA inh HTS: 0.6
- rRNA inh HTS OD600: -0.1
- rRNA inh HTS RFP: -1.0
- ALR H2O2 inh: 97.0*
- HNF4A DNA FP: 3.7
- UCH37 DUB inh: 3.1
- Beta2AR agonist: -2.2
> O=c1nc2ccccc2c2n1CC(CN1CCN(c3cccc(Cl)c3)CC1)N2 (configuration not stated)
- FGF22 binding: ·
- Ecoli growth: 0.693
- rRNA inh HTS: ·
- rRNA inh HTS OD600: ·
- rRNA inh HTS RFP: ·
- ALR H2O2 inh: ?
- HNF4A DNA FP: 3.7
- UCH37 DUB inh: 5.3
- Beta2AR agonist: -3.4

Bioassay records (PubChem)

This is a subset (hit frequency here may not be typical).
